YopH PTP inh: inhibitors of Yersinia enterocolitica YopH tyrosine phosphatase; inhibition, %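 (about 10 µM by stock and volumes)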; fluorescence Ex485/Em525; hit rate 0.16% among 140,000;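 active = inhibition of 50% or more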;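 note: controls were vehicle for no effect and minimum signal wells for full effect; inactives centre near -20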
Arbovirus anti: antivirals against arbovirus infection. arbovirus infection cell-based antiviral screen. inhibition, % at 10 µM. hit rate 0.37% among 200,000. AID 1251;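 active = inhibition from about 30%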;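 note: bluetongue infection of BSR cells; cell survival read as ATP light after 72 h; 0% = infected wells without compound and 100% = uninfected wells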
RecA intein inh: inhibitors of M. tuberculosis RecA intein splicing; P9WHJ3; hit rate 0.75% among 290,000; AID 2221; inhibition, %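 (about 9 µM by stock and volumes)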; cell-free RecA intein splicing, fluorescence; in the data active = inhibition above about 30%; inconclusive = no clear call, values can overlap the other calls;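 note: 0% = vehicle wells and 100% = reference inhibitor control wells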
Target sequence (P9WHJ3 whole entry, looked up): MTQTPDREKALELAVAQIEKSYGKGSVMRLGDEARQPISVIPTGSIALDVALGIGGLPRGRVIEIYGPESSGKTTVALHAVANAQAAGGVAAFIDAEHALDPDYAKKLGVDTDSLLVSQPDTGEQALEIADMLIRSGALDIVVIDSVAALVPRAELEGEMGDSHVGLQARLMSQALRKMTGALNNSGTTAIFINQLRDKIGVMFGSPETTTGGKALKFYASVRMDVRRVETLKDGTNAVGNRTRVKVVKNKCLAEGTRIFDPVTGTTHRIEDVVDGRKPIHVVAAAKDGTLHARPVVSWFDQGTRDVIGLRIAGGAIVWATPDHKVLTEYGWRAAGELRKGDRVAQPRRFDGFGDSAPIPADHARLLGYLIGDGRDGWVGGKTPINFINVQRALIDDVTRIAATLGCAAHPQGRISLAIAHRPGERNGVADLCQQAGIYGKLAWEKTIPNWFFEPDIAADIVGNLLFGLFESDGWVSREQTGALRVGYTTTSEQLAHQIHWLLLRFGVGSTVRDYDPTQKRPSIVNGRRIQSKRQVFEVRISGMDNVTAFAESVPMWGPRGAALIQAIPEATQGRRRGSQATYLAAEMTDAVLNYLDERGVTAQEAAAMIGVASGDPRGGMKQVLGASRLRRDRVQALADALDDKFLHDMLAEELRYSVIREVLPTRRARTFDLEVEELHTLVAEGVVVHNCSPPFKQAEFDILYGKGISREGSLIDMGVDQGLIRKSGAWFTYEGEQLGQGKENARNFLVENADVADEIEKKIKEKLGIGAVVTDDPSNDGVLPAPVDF
Mtb betalactam: beta-lactam sensitization of Mtb H37Rv; inhibition, % at 25 µM; AID 434955; hit rate 0.27% among 330,000; M. tuberculosis H37Rv growth with meropenem, percent inhibition; hits of this screen are not shown here;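 active = about 74% or more and at least 40 points above the plate without the antibiotic, then above 30% in a dose series; inconclusive = first-round hits that could not be retested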;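 note: growth measured after seven days incubation then overnight dye step; 0% = bacteria only wells and 100% = bacteria with antibiotic; twin plates without the antibiotic show which effects depend on it; some results filed as inactive read as strong as hits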
Mtb H37Rv: M. tuberculosis H37Rv growth inhibitors, H37Rv strain (AID 1626). M. tuberculosis H37Rv growth inhibition; higher % means a stronger effect. inhibition, % at 10 µM, or IC50 in µM where a hit was titrated. hit rate 0.95% among 220,000;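 active = confirmed in a dose series; inconclusive = inhibition above 80% but not taken into the dose series; inactive = below 80% or under 30% at every dose of the series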;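 note: bacteria incubated seven days before Alamar blue readout; 0% = bacteria only wells and 100% = bacteria with antibiotic wells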
Arbovirus anti repeat: recorded beside Arbovirus anti, whose call it bears; inhibition, %; measured here: 10K subset replicate screen; many hits read low in the repeat;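 first of two repeat runs on a subset; 0% = infected and 100% = uninfected wells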
* = called active by the depositor; ? = inconclusive; · = no result given.

SMILES	YopH PTP inh	Arbovirus anti	RecA intein inh	Mtb betalactam	Mtb H37Rv	others
CC1CCCCN1C(=O)CSc1nnc(-c2ccccc2O)o1 (centres undefined)	·	·	-0.3	59	·
CN1CC(=O)N2C(c3ccc(Cl)cc3)c3[nH]c4ccccc4c3C[C@H]2C1=O (some centres undefined)	·	·	24	6	·
CNC(=O)NC(=O)C(OC(=O)c1cccc(S(=O)(=O)N2CCCCC2)c1)c1ccccc1 (centres undefined)	-13	-6	1.0	-4	3%
COc1ccc(-c2oc(/N=C/N3CCOCC3)c(C#N)c2-c2ccc(OC)cc2)cc1	-51	-7	8.9	0	-3%	Arbovirus anti repeat=-12
Oc1ccc(-c2nc3ccccn3c2NCc2ccc3c(c2)OCO3)cc1	-49	-1	-25	5	-1%
Cc1ccc(C=Nc2ccccc2C#N)s1	-21	3	-0.3	2	-1%
Nc1cc(C(=O)O)ccc1Nc1ccccc1	-7	-2	4.0	39	-5%
COc1ccc(OCCNC(=S)Nc2cccc3ccccc23)cc1	0	3	-0.1	?	16%
CN(c1ccccc1)C(c1ccc(F)cc1)c1nnnn1C1CCCC1 (centres undefined)	-21	-23	8.0	5	0%
C#CC[N+](C)(C)CCN1C(=O)C2C(c3ccccc3)C=CC(c3ccccc3)C2C1=O (centres undefined)	·	-4	-4.3	-8	0%
COc1ccc(C(=O)/C=C/Sc2nc3ccccc3o2)cc1	·	·	46*	98	3%
CCN(CC)c1ccc(NC(=O)c2cc3c(OC)cccc3[nH]2)cc1	·	·	0.0	-1	·
CC(C)NC(=O)c1ccc2c(c1)N(Cc1ccccc1)C(=O)C(C)(C)O2	·	·	0.9	1	·
O=C(c1cccc(N2C(=O)C3C4C=CC(C4)C3C2=O)c1)N1CCCCCC1 (centres undefined)	-45	-1	1.5	-10	-6%
Cc1ccc(NC(=O)CC2=NC(=O)C(CC(=O)Nc3ccccc3F)S2)cc1 (centres undefined)	·	-6	-4.4	-6	0%
Cc1cccc(N2CCN(S(C)(=O)=O)CC2)c1C	-8	3	-4.0	-6	·	Arbovirus anti repeat=7
COc1cccc(Nc2ncccc2C(=O)Nc2ccccc2)c1	23	2	·	10	-3%
O=[N+]([O-])c1cc(/C=N/n2c(-c3ccncc3)n[nH]c2=S)ccc1Cl	·	11	-1.1	-3	2%
CCn1c(CC(=O)Nc2ccc(F)cc2)nnc1SCC(=O)N1CCOCC1	·	·	-1.6	-18	·
Cc1cccn2c(CNCCc3ccccn3)c(C(=O)N3CCOCC3)nc12	·	·	0.5	?	·
COC(=O)c1ccc(C)c(NC(=O)CN(c2cc(OC)ccc2OC)S(C)(=O)=O)c1	-59	-2	·	1	5%	Arbovirus anti repeat=-19
Cc1cccc(N(CC(O)CN2CCCC2)S(=O)(=O)c2ccccc2)c1 (centres undefined)	·	·	0.3	0	·
CC(C)CC(C(=O)NC1CCCCC1)N(Cc1cccs1)C(=O)c1snc(C(N)=O)c1N (centres undefined)	·	-10	0.6	0	7%
Nc1nc(SCC(=O)NN(c2ccccc2)c2ccccc2)n[nH]1	-1	7	·	-7	3%

Fetched by structure from the list above (six):
SMILES	YopH PTP inh	Arbovirus anti	RecA intein inh	Mtb betalactam	Mtb H37Rv	others
Nc1nc(SCC(=O)NN(c2ccccc2)c2ccccc2)n[nH]1	-1	7	·	-7	3%
CCN(CC)c1ccc(NC(=O)c2cc3c(OC)cccc3[nH]2)cc1	·	·	0.0	-1	·
CC(C)NC(=O)c1ccc2c(c1)N(Cc1ccccc1)C(=O)C(C)(C)O2	·	·	0.9	1	·
Cc1cccc(N2CCN(S(C)(=O)=O)CC2)c1C	-8	3	-4.0	-6	·	Arbovirus anti repeat=7
COC(=O)c1ccc(C)c(NC(=O)CN(c2cc(OC)ccc2OC)S(C)(=O)=O)c1	-59	-2	·	1	5%	Arbovirus anti repeat=-19
Nc1cc(C(=O)O)ccc1Nc1ccccc1	-7	-2	4.0	39	-5%

Further structures:
SMILES	YopH PTP inh	Arbovirus anti	RecA intein inh	Mtb betalactam	Mtb H37Rv	others
O=C(NC1CCCCC1)c1ccc(CS(=O)Cc2ccc(Cl)cc2)o1 (centres undefined)	·	·	3.6	-3	·
Cc1cccc(OCC(=O)NCc2n[nH]c(=O)c3ccccc23)c1	·	·	-0.7	-5	·
C=CCn1c(SCC(=O)c2[nH]c(C)c(C(C)=O)c2C)nnc1-c1ccncc1	-14	-1	-2.1	-3	4%
COc1ccc(C)cc1NC(=O)CSc1nnc(-c2ccc(Br)cc2)o1	34	10	-1.7	90	62%
CS(=O)(=O)N(CC(O)Cn1c2ccccc2c2ccccc21)c1cccc2ccccc12 (centres undefined)	-38	-16	17	15	26%
O=C(CSc1ccc(-c2ccccc2)nn1)NC1CCCC1	·	·	0.2	10	·
CC(=O)Nc1nc2ccc(C(=O)NCCOC(=O)C3CCCCC3)cc2s1	·	-2	-0.4	35	-7%
O=C(NCCCc1ccccn1)C1CCC(=O)N(Cc2cccc(F)c2)C1 (centres undefined)	·	·	-1.7	-1	·
CN(C)/C=C(/C(=O)c1ccc(Cl)cc1)S(C)(=O)=O	·	1	9.9	5	3%
CC(NC(=O)COc1ccccc1F)C1CC2CCC1C2 (centres undefined)	·	7	1.5	6	13%
CCOc1cccc(NC(=O)CSc2nncn2N)c1	-17	3	-1.0	2	-4%
Cc1ccc(S(=O)(=O)N2CCOCC2)cc1NC(=O)CSc1ccccn1	·	6	-1.2	-15	-1%
O=C(CCS(=O)(=O)c1ccc(Br)cc1)Nc1ccccc1Cl	·	·	-6.4	-6	·
CC(C)(C)C(=O)/C=c1\[nH]c(=O)/c(=C\c2ccccc2F)s1	·	-3	-11	71	80%
COc1cc(NC(=O)C23CC4CC(C2)CC(n2cnc([N+](=O)[O-])n2)(C4)C3)cc(OC)c1	-26	2	1.5	-1	10%
Cc1ccc(Cn2cc(/C=N/Nc3ccc([N+](=O)[O-])cn3)c3ccccc32)cc1	-20	-18	-1.2	67	2%
c1ccc2c(COn3nnc4ccccc43)cccc2c1	-6	-3	·	45	0%
N#C/C(=C\c1ccccc1)C(=O)N1CCN(c2ccccc2F)CC1	·	·	12	12	·
NC(=S)Nc1ccc(Cl)c(Cl)c1	·	·	2.8	89	43%
COc1ccc(CNC(=O)OCc2nccnc2C(=O)Nc2ccc(Br)cn2)cc1	·	·	0.8	6	·
CCn1c(CNC(=O)c2ccccc2)nc2ccccc21	-23	·	-0.6	-5	-6%
CN(C)S(=O)(=O)c1ccc(NC(=O)C2COc3ccccc3O2)cc1 (centres undefined)	-21	-1	0.1	10	0%	Arbovirus anti repeat=2
Cc1cc(Cn2nc(-c3ccccc3)cc2C(=O)NCc2cccs2)on1	·	·	7.0	4	·
COC(=O)C(NC(=O)C(NC(=O)C1CCC(C)CC1)C(C)C)C(C)C (centres undefined)	·	·	-1.0	-2	·
Nc1nc(SCc2ccccc2Cl)[nH]c(=O)c1-c1ccccc1	-10	6	·	-1	4%
COc1ccccc1N1CCN(Cc2c(F)cccc2Cl)CC1	2	9	-1.4	19	-9%
CC1CC(C)(C)NC(=S)N1CCCC(=O)NCc1ccccc1 (centres undefined)	·	2	-2.5	-5	-1%
COCCNC(=O)COC(=O)/C=C/c1c(C)nn(Cc2ccc(Cl)cc2Cl)c1Cl	24	-9	0.2	-11	-2%
CCN1CCN(c2ccc(S(=O)(=O)N3CCCCC3)cc2NC(=O)/C=C/c2ccc(OC(F)F)cc2)CC1	·	·	3.2	60	·
O=S(=O)(NC1c2cccc3cccc(c23)C1N1CCNCC1)c1ccc(Cl)cc1 (centres undefined)	·	-30	-0.6	6	12%
CC(/C=N/NC(=O)c1ccccc1F)c1ccccc1 (centres undefined)	·	·	-2.7	95	-13%
Cc1cc(C)c2c(c1)-c1cc(C)nn1C(c1cccnc1)N2 (centres undefined)	·	-4	-1.4	-5	-9%
C=CCOc1cccc(C(=O)N2CCCC(CNS(=O)(=O)c3cccs3)C2)c1 (centres undefined)	·	2	-0.4	2	0%
CSc1ccc(C(=O)C2CCCN(C(=O)c3cc4cc(F)ccc4[nH]3)C2)cc1 (centres undefined)	·	12	8.2	3	-15%
O=C(Oc1ccc(Cl)c2cccnc12)c1cccc([N+](=O)[O-])c1	-41	-3	-2.2	99	?
Cc1cc(C)n(-c2ccc([N+](=O)[O-])cc2)n1	-22	-5	43*	-5	8%
COC(=O)COc1ccc(/C=N/NC(=O)CN(c2ccccc2OC)S(=O)(=O)c2ccccc2)cc1	·	·	3.0	7	·
CC1CCN(c2ccc(C(=O)Nc3nnc(C4CC4)s3)cc2[N+](=O)[O-])CC1	-26	21	0.7	1	17%
COC(=O)c1cc(NCc2ccccc2F)ccc1N1CCOCC1	-29	3	-7.1	-6	0%
COc1ccc(NC(=O)Cn2nnc(C(=O)NCc3ccccc3)c2N)cc1Cl	-27	-17	1.8	4	5%
CCOc1ccc(/C=C/c2c([N+](=O)[O-])c(=O)n(C)c(=O)n2C)cc1	·	11	5.8	3	6%
CCNc1nc(NCC)nc(N/N=C/c2ccc(OC)cc2)n1	·	·	-1.2	-8	-9%
COCCCNC(=O)CCn1c(=O)c2ccccc2n(CC(=O)Nc2cc(Cl)ccc2C)c1=O	-28	4	3.8	-4	1%
O=C(c1ccccc1Oc1ccccc1)N1CCN(c2ccc(F)cc2)CC1	-42	7	9.9	-10	7%
O=C(NCc1cccnc1)C12CC3CC(CC(C3)C1)C2	·	·	0.3	-2	·
CN(C)c1nc(N)nc(CSc2n[nH]c(-c3ccccc3)n2)n1	-26	1	-2.7	5	4%
Cc1ccccc1Cn1nc(C)c(NC(=O)c2sc3ccccc3c2Cl)c1C	-34	9	3.1	90	-7%
CC(=O)Nc1ccc(C(=O)CSc2nnnn2C(C)C)cc1	-35	3	-0.8	-6	7%
Cc1ccc(SCc2[nH]nc3c2C(c2ccc(C)o2)C(C#N)=C(N)O3)cc1 (centres undefined)	-27	-3	37*	?	-6%
CCn1nc(NC(=O)C2CCCO2)c2cc3cccc(C)c3nc21 (centres undefined)	·	·	-177	0	-1%
Cc1cc(C)nc(SCc2ccc(C(=O)N/N=C/c3cccc(O)c3O)cc2)n1	-45	-22	-5.5	8	-6%
O=C1C(Cl)=C(N2CCN(c3ccccc3[N+](=O)[O-])CC2)C(=O)c2ccccc21	16	-36	-0.4	8	6%
Cc1ccc(C(=O)NCc2ccccc2)cc1Br	-17	-7	0.4	-4	-9%
Cc1ccc(S(=O)(=O)NNC(=O)Nc2ccc(Cl)c(Cl)c2)cc1	·	9	-1.3	-1	?
O=C(O)c1c(-c2ccc(Cl)cc2)cn2ccccc12	·	1	0.9	-2	0%
Cc1cc(F)ccc1NC(=S)NC1CCCC1	·	·	0.7	-1	·
O=C(CCCn1c(=O)[nH]c2cc(Cl)ccc2c1=O)NCCCN1CCCC1	7	-2	0.9	-5	-1%
COc1ccccc1NC(=O)c1cc(S(=O)(=O)N2CCOCC2)ccc1Cl	-26	1	1.3	-5	-8%
Cc1sc2nc(SCc3ccc(C(=O)O)cc3)n(Cc3ccco3)c(=O)c2c1C	·	·	-1.8	-1	3%
O=C(CSc1nccc(-c2cccs2)n1)Nc1cccc(Cl)c1Cl	·	·	-0.4	-1	-4%

Reprinted from the part before: three compounds; new compounds follow.
SMILES	YopH PTP inh	Arbovirus anti	RecA intein inh	Mtb betalactam	Mtb H37Rv	others
COc1ccccc1NC(=O)c1cc(S(=O)(=O)N2CCOCC2)ccc1Cl	-26	1	1.3	-5	-8%
Cc1sc2nc(SCc3ccc(C(=O)O)cc3)n(Cc3ccco3)c(=O)c2c1C	·	·	-1.8	-1	3%
O=C(CSc1nccc(-c2cccs2)n1)Nc1cccc(Cl)c1Cl	·	·	-0.4	-1	-4%
COc1ccc(-c2cc(=NC(CC(C)C)C(=O)O)c3cc(C)ccc3o2)cc1 (centres undefined)	-10	3	1.2	48	2%
CC(=O)Oc1ccc(C(=O)Nn2cnnc2)cc1	4	·	-1.9	2	-11%
COc1ccccc1C(c1nnnn1C(C)(C)C)N1CCCCCC1 (centres undefined)	-13	4	-2.5	5	-5%
O=C(OCc1nnc(-c2ccccc2)o1)c1ccc(Cl)cc1	·	-6	1.7	-5	2%
CC(=O)Nc1ccc2nc(-c3cccnc3)[nH]c2c1	-31	1	0.9	-9	·
CCCCn1c(N)c(N(CCC(C)C)C(=O)COC(=O)c2ccco2)c(=O)[nH]c1=O	-30	8	2.8	3	-19%
O=C(N/N=C/c1cccc(OC(=O)c2ccccc2Cl)c1)c1cccnc1	·	·	3.9	1	·
CCOc1cccc(/C=C/c2cc(C(=O)O)c3ccccc3n2)c1OC	·	·	0.5	2	-8%
Cc1cc(C)nc(/N=C2\NC(=O)CC(C(=O)O)N2c2ccc(Oc3ccccc3)cc2)n1 (centres undefined)	-24	0	2.1	-4	8%
CCOC(=O)C/C(C)=N/NC(=O)c1cccs1	1	-11	1.1	·	4%

A portion of the library; rates above refer to the full screens.
